Screening results (PubChem)
B2AR ag = beta2AR agonists driving receptor internalization, primary screen, cell-based, FAP fluorogen, flow cytometry; Beta-2 adrenergic receptor (Homo sapiens), P07550; Am2.2-beta2AR cells; reference of the scale not given here; response, % (no concentration beside the values); 0.43% of 340,000 active;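 active = response above a set limit, near 3 SD of response in nonfluorescent compounds, cut at about 42% in these data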;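 note: stock transfer was 100 nL into about 11 µL; a reference agonist was the positive control; negative values mostly stem from fluorescent compounds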
Target sequence (P07550 whole entry, looked up): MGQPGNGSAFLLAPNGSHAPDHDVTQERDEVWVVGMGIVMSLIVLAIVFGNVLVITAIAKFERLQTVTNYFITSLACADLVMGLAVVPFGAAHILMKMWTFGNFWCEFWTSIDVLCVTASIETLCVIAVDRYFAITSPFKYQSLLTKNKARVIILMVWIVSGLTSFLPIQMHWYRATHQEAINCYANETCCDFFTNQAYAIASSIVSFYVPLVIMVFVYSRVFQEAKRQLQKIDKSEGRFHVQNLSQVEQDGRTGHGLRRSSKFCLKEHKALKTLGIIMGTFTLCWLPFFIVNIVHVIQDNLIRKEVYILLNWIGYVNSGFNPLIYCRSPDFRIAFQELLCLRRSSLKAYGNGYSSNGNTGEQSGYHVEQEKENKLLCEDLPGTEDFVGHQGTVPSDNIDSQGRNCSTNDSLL
UCH37 DUB inh = inhibitors of human UCH37 deubiquitinase, primary screen, biochemical, Ub-AMC cleavage, fluorescence; Ubiquitin carboxyl-terminal hydrolase isozyme L5 (Homo sapiens), Q9Y5K5; inhibition, % (concentration not given with the values); purified proteasome/UCH37; AID 588478, 2011; 0.33% of 330,000 active;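 active = mean of two replicates above 20%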;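 note: 0% = compound-free wells with enzyme and 100% = wells lacking proteasome; stock transfer was 100 nL into about 20 µL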
Target sequence (Q9Y5K5 whole entry, looked up): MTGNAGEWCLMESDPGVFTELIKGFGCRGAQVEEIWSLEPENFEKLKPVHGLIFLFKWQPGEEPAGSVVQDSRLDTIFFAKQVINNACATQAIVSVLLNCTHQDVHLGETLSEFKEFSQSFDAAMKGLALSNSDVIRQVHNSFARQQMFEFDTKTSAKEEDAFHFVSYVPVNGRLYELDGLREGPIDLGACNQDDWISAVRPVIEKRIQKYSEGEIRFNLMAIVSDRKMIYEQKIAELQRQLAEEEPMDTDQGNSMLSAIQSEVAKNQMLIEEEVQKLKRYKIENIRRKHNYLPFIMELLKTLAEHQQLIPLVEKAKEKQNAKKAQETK
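Signal – fluorescence, ex 355 nm, em 460 nm · System – Proteasome-bound UCH37 · Input – 0.15 nM proteasome as dispensed · Timing – 30 min preincubation with enzyme, 25 min cleavage at room temperature · Read-out basis – percent inhibition of cleavage signal versus uninhibited and no-proteasome wells · Medium – Tris-HCl pH 7.4 with ATP-MgCl2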
RanGTP-Impb inh = inhibitors of RanGTP-importin-beta interaction, primary screen, biochemical, FRET, CFP-Ran, YFP-importin-beta, homogeneous; inhibition, % (concentration not given with the values); cell-free CFP-Ran/YFP-importin-beta FRET ratio; 1.1% of 300,000 active;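 active = most replicates above 15%; inconclusive = exactly half above 15%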;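 note: 0% = DMSO wells and 100% = Ran loaded with GDP instead of GTP; wells of about 40 µL received 100 nL stock; the first replicate is given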
A1 inh = caspase 3/7 activation in MEF A1-2A-BIM cells, primary screen, A1 inhibitor project, cell-based, luminescence, HTS; Caspase-Glo 3/7 luminescence, 3 h; percent of clofoctol response, vehicle zero; caspase activation, % (no concentration beside the values); 0.066% of 330,000 active;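 active = over half of replicate activation scores above 10%, or exactly half above 10 with the replicate mean above 10; inconclusive = replicate mean below 10 yet half the replicates above 10; inactive = over half of replicates below 10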;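 note: wells of about 30 µL received 50 nL stock; many hits fall short of the cut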
Beta cell apopt = inhibitors of cytokine-induced beta cell apoptosis, primary screen, luminescence; INS-1E cytokine-induced death, ATP luminescence, 48 h; percent of positive-control rescue, neutral wells zero; 0.8% of 300,000 active; protection from apoptosis, % (no concentration beside the values);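 active = all replicates at 75% or more, or half of them and the mean; inconclusive = half reach 75% but not the mean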;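 note: 0% = cytokine-treated negative control wells and 100% = positive control rescue; higher means more ATP so stronger rescue from cytokine killing; wells of about 40 µL received 100 nL stock; the first replicate is given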
Calb FLC = C. albicans growth inhibition with fluconazole, primary screen, CaCi-2 strain, Alamar Blue fluorescence. C. albicans CaCi-2 (fluconazole-resistant clinical isolate) + fluconazole, 48 h. growth inhibition, % (no concentration beside the values). 0.57% of 300,000 active;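 active = most replicates above 75%; inconclusive = exactly half above 75%; inactive = most below 75%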;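 note: all wells also contain fluconazole at 8 µg/ml as a sub-toxic cotreatment; 0% = median of DMSO wells and 100% = median of geldanamycin control wells; wells of about 8 µL received 7.5 nL stock; the first replicate is given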
LANA-H2A inh = blockers of LANA interaction with H2A/H2B – biochemical, FP readout, HTS, primary screen; inhibition, % (concentration not given with the values); AID 2629, 2010; cell-free LANA-H2A/H2B peptide, fluorescence polarization; 0.6% of 320,000 active; Protein LANA1 (Human herpesvirus 8 type P (isolate GK18)), Q9QR71; in the data active = inhibition mostly above about 10%, no sharp cut-off; inactive = mostly below about 6.7%;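 note: stock transfer was 7.5 nL into about 10 µL; 0% = median of vehicle wells and 100% = median of positive control wells; one replicate is shown; the record names a cut of 25% in any replicate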
T cruzi repl = inhibitors of intracellular T. cruzi growth, primary screen, luminescence, NIH3T3 host cells; T. cruzi beta-gal in NIH3T3, 90 h; inhibition, % (test concentration not listed); 1.4% of 300,000 active;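 active = mean inhibition across valid replicates above about 55%, limit read from the data; inconclusive = mean below that limit but half or more replicates reach it; inactive = mean below it, under half of replicates reach it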;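 note: signal also drops with host cell toxicity which is not excluded here; 0% = plate median of DMSO wells and 100% = zero luminescence signal; higher percent means less beta-gal luminescence so fewer parasites; stock transfer was 50 nL into about 50 µL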
Starred values were filed as active, the others as inactive; u = inconclusive; x = not tested or not shown.

SMILES	B2AR ag	UCH37 DUB inh	RanGTP-Impb inh	A1 inh	Beta cell apopt	Calb FLC	LANA-H2A inh	T cruzi repl
O=C(CN1C(=O)NC2(CCCC2)C1=O)N1CCN(C(=O)c2ccco2)CC1	5	-1.1	3.4	0.6	-8	3	-2.5	-16
Cc1cc(C(=O)NC(C)CCc2ccccc2)ccc1[N+](=O)[O-] (stereo unspecified)	-10	2.4	-1.6	0.8	5	-43	-3.8	0
O=C(c1ccc(CN2CCc3ccccc3C2)cc1)N1CCc2ccccc2C1	-2	4.4	9.3	-0.5	-15	2	-0.2	10
COc1cccc(NC(=O)CCNS(=O)(=O)c2ccc(Br)s2)c1	1	5.5	2.2	0.0	-1	23	-3.2	-9
CNCC(=O)Nc1ccc(Cl)c(C(F)(F)F)c1	27	2.5	0.7	-2.1	-9	-25	0.1	-6
Cc1cc(NS(=O)(=O)c2ccc(NC(=O)c3c(F)c(F)c(F)c(F)c3F)cc2)nc(C)n1	2	0.4	-1.5	1.5	-2	1	-0.8	-1
COc1ccccc1CCC(=O)N(CCC1=CCCCC1)c1c(N)n(Cc2ccccc2)c(=O)[nH]c1=O	5	-0.9	3.0	0.9	0	-13	-4.0	26
COc1ccccc1N1CCN(CCN2C(=O)C3CCCN3C2=O)CC1 (stereo unspecified)	-8	1.7	4.0	0.6	-5	-5	-0.5	-1
COCCN(C(=O)c1ccco1)c1nnc(-c2ccc(F)cc2)s1	-22	1.4	4.3	0.2	-8	-15	5.6	13
Cc1sc2nc(SCC(=O)N(C)c3ccccc3)n(C)c(=O)c2c1C	-1	4.4	4.0	1.1	-1	16	4.2	-4
COC(=O)c1sccc1Oc1ccc(Cl)cc1N1C(=O)CCC1=O	1	4.8	5.2	0.4	x	-2	-7.3	11
Cc1ccc(NC(=O)c2ccc(OCc3c(C)noc3C)cc2)c(C)c1	-2	6.0	x	-0.5	5	x	-2.0	x
Cc1cc(C(=O)N2CCCC(CCC(=O)N3CCN(c4ccccn4)CC3)C2)c(C)o1 (stereo unspecified)	-5	-0.9	-1.8	0.1	0	-6	0.6	7
CCN(CC)CCCNC(CC(=O)Nc1cccc([N+](=O)[O-])c1)C(=O)O (stereo unspecified)	-2	2.1	-2.8	0.9	-11	2	2.2	-1
COc1ccc(-n2ncc3c(SCC(=O)N4CCN(c5ccccc5OC)CC4)ncnc32)cc1	8	-6.1	u	-9.5	4	u	-0.6	16
COc1ccc(Cl)cc1-c1n[nH]c(=S)o1	-4	-7.5	0.3	0.1	-6	3	-1.4	0
Cc1nn(-c2ccccc2)c(Cl)c1CN(C(=O)CCl)c1cccc2ccccc12	28	4.0	2.5	2.6	20	-10	-2.1	21
O=C(O)CCC(=O)NNC(=O)c1cccc(Br)c1	4	-2.6	-2.2	0.8	-7	13	1.8	7
COc1ccc(CC(=O)OCC(=O)NC2CC2)cc1	5	0.4	x	-0.7	-7	x	3.4	x
CC(=O)Nc1ccc(S(=O)(=O)NCc2ccc(C(=O)NC(C)c3ccccc3)cc2)cc1 (stereo unspecified)	11	1.1	u	0.3	-4	-10	-8.9	15
CC1(C)Oc2ccc3ccc(=O)oc3c2/C(=C/Nc2cccc(O)c2)C1=O	0	5.6	1.0	-0.3	-4	1	3.1	1
COCCNC(=O)C(=O)N/N=C(\C)CC(=O)Nc1cccnc1	-2	x	2.3	-0.1	-4	-3	1.4	-5
CCOc1ccc(NC(=O)Cn2nnc(-c3ccccc3NC(=O)CC)n2)cc1	-5	-0.5	0.2	-2.7	1	-2	1.9	1
Cc1cc(C)nc(NC(N)=NC(C)c2ccccc2)n1 (stereo unspecified)	x	0.7	3.1	-0.1	3	-12	1.2	-8
CCCc1nc2oc3c(NCCN(C)C)ncnc3c2c2c1CCCC2	14	-8.7	-5.2	0.8	0	8	-7.1	38
O=C(NC1CCCC1)C(c1ccccn1)N(Cc1ccccc1F)C(=O)c1csnn1 (stereo unspecified)	0	5.9	3.5	0.4	7	-12	0.4	7
CC(=O)c1c(C)[nH]c(C(=O)COC(=O)c2cc(C)oc2C)c1C	-5	4.3	x	2.2	9	x	-3.5	x
Cc1ccc(C(=O)NNC(=O)C2CCN(c3nc(C)cc(C)n3)CC2)cc1	-4	-3.0	-2.9	0.9	4	-11	0.6	-15
N#C/C(C(=O)c1ccccc1)=C1/CCCN1	-6	3.1	-3.0	1.8	-18	43	-2.2	-9
Cc1nc2ccccc2c(=O)n1/N=C/c1c(O)ccc2ccccc12	3	x	-0.7	0.8	85*	53	7.8	12
Cc1ccccc1CN(c1ccc(C(=O)N2CCN(C)CC2)cc1)S(C)(=O)=O	0	1.7	-0.5	0.6	1	1	-4.5	22
Cn1c(COc2ccccc2)nnc1SCC(=O)NCc1ccccc1	-6	2.7	2.1	-0.1	2	4	-1.1	-13
COc1ccc(NC(=O)C2CCN(S(=O)(=O)c3c(C)noc3C)CC2)cc1OC	1	1.0	5.4	-0.5	x	-6	-2.5	3
CCOC(=O)C1CCCCN1Cc1cccc(Oc2ccccc2)c1 (stereo unspecified)	-1	1.9	-2.7	0.4	5	-6	-0.5	-16
O=[N+]([O-])c1cnccc1NC1CCCCC1	0	-4.6	3.8	0.2	0	-12	4.3	1
Cc1cc(C)n(-c2nc3ccccc3[nH]c2=O)n1	7	-28	5.5	-0.7	-6	17	2.9	-12
COc1ccc(Cl)cc1/C=C/c1ccc2cccc(O)c2n1	4	-1.3	-1.3	0.7	24	11	-0.8	34
COc1ccc(NC(=O)c2cc(C)cc(C)c2)cc1[N+](=O)[O-]	2	1.4	-3.0	-0.4	3	-16	-4.8	2
Cn1c(=O)c2c([nH]c(=S)n2Cc2ccc(Cl)cc2)n(C)c1=O	-3	6.1	0.4	-0.2	-4	1	9.8	-7
CCN(CC(=O)N1CCOCC1)S(=O)(=O)c1ccc2ccccc2c1	-1	1.7	1.4	-0.7	-4	-3	-4.1	1
CO/N=C/NC(=O)c1c(OC)ccnc1Oc1ccc(Cl)cc1	5	-0.7	2.6	-0.6	6	26	-2.1	-10
CC(C)N1CCN(Cc2cn[nH]c2C2CCCCC2)CC1CCO (stereo unspecified)	-2	3.8	5.7	0.3	0	1	-1.3	5
CCOC(=O)C1(S(=O)(=O)c2ccccc2)CCN(Cc2ccc(Cl)cc2)CC1	2	2.4	2.9	1.2	-6	6	5.7	21
O=C(COC(=O)c1cccc([N+](=O)[O-])c1)NNC(=O)c1cccs1	-8	3.3	x	-0.1	0	x	x	x
CCOC(=O)c1c(-c2cccc([N+](=O)[O-])c2)csc1NC(=O)CCCOc1ccccc1OC	-1	1.4	3.0	x	x	0	x	28
c1cncc(-c2csc(NCc3ccco3)n2)c1	-9	0.0	-1.2	-0.7	-8	7	-1.0	6
O=C(NNC(=S)NC(=O)c1ccccc1)c1cccc([N+](=O)[O-])c1	-7	10	2.3	0.0	1	-11	-1.7	15
CCOC(=O)[C@H]1[C@H]2COc3ccc(Cl)cc3[C@@H]2N2C(=O)CN(Cc3ccc(F)cc3)C(=O)[C@@]12C	0	2.8	x	-0.6	2	x	-0.3	x
COCCn1c(=NC(=O)CCS(=O)(=O)c2ccccc2)sc2cc(C)ccc21	-7	-8.1	x	-0.8	4	x	-2.2	13
O=c1c2ccccc2nc2n1CCc1c-2[nH]c2ccccc12	-6	-4.0	x	-4.3	1	x	-4.5	x
O=C(Nc1cccc(C(F)(F)F)c1)N1CCN(C(=O)Nc2cccc(C(F)(F)F)c2)CC1	2	4.3	0.3	1.8	0	18	5.6	-18
CCN1C(=O)C2(C(C#N)=C(N)Oc3n[nH]c(C(C)C)c32)c2ccccc21 (stereo unspecified)	-2	-0.5	26*	-0.5	-3	-5	-3.9	-1
Nc1nc(CSc2nc3ccccc3s2)nc(N2CCOCC2)n1	-13	-0.9	14	-0.3	-3	0	2.4	-1
O=C(CCCN1C(=O)/C(=C/c2ccccc2)SC1=S)Nc1cccc(O)c1	10	4.5	x	0.3	-7	22	7.8	24
CCN1CCN(C(=S)Nc2sc(C)c(-c3ccccc3)c2C(=O)OC)CC1	7	2.2	8.4	0.3	3	-8	-2.9	39
COC(=O)CCCC(=O)Nc1ccc(Cl)c(Cl)c1	4	4.0	0.5	-0.8	-5	4	-0.2	-13
CCOC(=O)CSC1=NC(=O)CS1	6	4.2	-3.7	-0.3	-9	u	0.4	6
Cc1ccccc1OCc1nnc(SCC(=O)O)n1-c1cccc(Cl)c1	-4	1.5	5.8	0.5	-3	12	0.6	1
CCOc1ccc(NS(=O)(=O)c2ccc3[nH]c(=O)c(=O)[nH]c3c2)cc1	-5	-0.8	-0.6	-1.3	0	4	-1.9	-4
O=C1/C(=C\c2ccco2)SC(=S)N1c1ccc(O)cc1	37	1.3	-2.5	0.3	-6	29	-1.9	0

Some of the entries so far, as labelled records:
SMILES: O=c1c2ccccc2nc2n1CCc1c-2[nH]c2ccccc12
  B2AR ag: -6
  UCH37 DUB inh: -4.0
  RanGTP-Impb inh: x
  A1 inh: -4.3
  Beta cell apopt: 1
  Calb FLC: x
  LANA-H2A inh: -4.5
  T cruzi repl: x
SMILES: O=C(Nc1cccc(C(F)(F)F)c1)N1CCN(C(=O)Nc2cccc(C(F)(F)F)c2)CC1
  B2AR ag: 2
  UCH37 DUB inh: 4.3
  RanGTP-Impb inh: 0.3
  A1 inh: 1.8
  Beta cell apopt: 0
  Calb FLC: 18
  LANA-H2A inh: 5.6
  T cruzi repl: -18

New compounds follow:
SMILES	B2AR ag	UCH37 DUB inh	RanGTP-Impb inh	A1 inh	Beta cell apopt	Calb FLC	LANA-H2A inh	T cruzi repl
Cc1ccc2c(c1)N(CC(=O)NCc1ccco1)C(=O)C(C(C)C)O2 (stereo unspecified)	3	3.2	-0.6	-0.2	-4	9	-1.0	-9
Cc1ccc(Cn2ccc(NC(=O)c3cc(-c4ccc(Cl)cc4)on3)n2)cc1	1	0.5	1.9	0.2	-10	-3	2.6	-3
O=C(O)CCN1C(=O)/C(=C\c2ccc(-c3nc4ccccc4s3)o2)SC1=S	55*	92*	-4.5	1.0	-2	-2	-8.7	-13
CCOC(=O)C1(Cc2cccc(F)c2)CCN(Cc2nc(CC)[nH]c2C)CC1	10	-4.4	-5.1	2.0	-5	8	-3.4	32
CCOc1ccc(Br)cc1/C=N/NC(=O)c1ccncc1	-11	x	0.1	-2.6	9	u	3.7	-6
COC(=O)C1(c2ccccc2)NC(c2cccs2)C2C(=O)N(C)C(=O)C21 (stereo unspecified)	1	-1.5	-2.9	0.4	0	-5	4.0	1
O=C(NC1CCCCC1)c1ccc(-c2ccccc2F)o1	4	2.0	x	-2.5	3	x	3.3	x
Cc1ccc(S(=O)(=O)N2CCCCC2)cc1NC(=S)NC(=O)c1ccco1	5	2.7	3.5	0.0	-3	-6	3.1	4
Cc1noc(C)c1S(=O)(=O)N1CCCC(C(=O)Nc2nccs2)C1 (stereo unspecified)	-10	0.8	-11	-0.1	-6	0	-0.7	-9
O=C(NC(=S)NCCc1ccc(Cl)cc1)c1ccco1	-5	0.4	-1.2	0.5	-2	-58	-2.5	-3
